High-throughput results: PubChem BioAssay, National Center for Advancing Translational Sciences (NCATS)
VDR inhibitor = Inhibitors of the vitamin D receptor (VDR): qHTS | VDR-SRC2-3 peptide fluorescence polarization, 2 h | actives 0.93% (n = 400,000) | AID 504847, 2011 | Potency, µM, for inactives: max response, negative = inhibition, hits mostly inhibitors | Vitamin D3 receptor (Homo sapiens), P11473; active = well fitted inhibition curve with a large enough effect; inconclusive = small, poorly fitted or top-dose-only effect, or another doubt; inactive = no such curve, though single readings can be large or run the other way; also: series mostly up to about 120 µM
Target sequence (P11473 whole entry, looked up): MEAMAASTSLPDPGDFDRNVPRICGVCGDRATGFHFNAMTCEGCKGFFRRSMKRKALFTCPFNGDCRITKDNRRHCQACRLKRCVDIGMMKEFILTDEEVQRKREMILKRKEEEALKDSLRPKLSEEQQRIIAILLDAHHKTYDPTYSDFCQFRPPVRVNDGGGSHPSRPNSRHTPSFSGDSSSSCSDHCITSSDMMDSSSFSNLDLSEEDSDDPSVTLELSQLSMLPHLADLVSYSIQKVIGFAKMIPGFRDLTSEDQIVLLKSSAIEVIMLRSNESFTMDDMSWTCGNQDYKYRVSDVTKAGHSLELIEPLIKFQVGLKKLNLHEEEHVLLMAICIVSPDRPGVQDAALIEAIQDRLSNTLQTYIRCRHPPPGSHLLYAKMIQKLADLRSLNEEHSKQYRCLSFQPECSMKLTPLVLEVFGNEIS
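After 23 nl compound addition and a short centrifugation, plates sat for 2 hours at ambient temperature; polarization of fluorescence then indicated loss of VDR binding to peptide SRC2-3.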
* marks the source's active call; other numbers are inactive results; ? = inconclusive; & = joins results of further samples. % is scaled to controls: 0 for no effect and ±100 for the full control effect; potency is read from the fitted curve at half-maximal effect. A portion of the library; rates above refer to the full screens.

Structure | VDR inhibitor
Clc1ccc(-c2nnc(Sc3nc4ccccc4o3)c3ccccc23)cc1 | -7.1%
CC(C)CN(C(=O)c1cc(Cl)nc2ccccc12)c1c(N)n(Cc2ccccc2)c(=O)[nH]c1=O | -5.1%
CCN(CC)CCOc1ccc2nc(N(C)C)sc2c1 | 5.3%&-18.0%
CC(=O)Nc1cc(C(=O)CSc2nnc(C3CC3)n2C2CC2)ccc1O | 3.5%
CCC(=O)c1ccc(OC(=O)c2cccs2)cc1 | -10.6%
Cc1cc(C)c2oc(-c3ccc(NC(=O)c4cc(Br)ccc4Cl)cc3)nc2c1 | 2.7%
O=C1CN(C(=O)C2CCCC2)CCN1 | -5.9%
Cn1c(CC(=O)Nc2ccccc2)n[nH]c1=S | 5.1%
NC1=NCCN1CC(=O)O | 4.7%
COc1ccc(C(=O)Nc2ccccc2C(=O)N2CCOCC2)cc1OC | 2.5%
CC(C(=O)N1CCCCCC1)c1ccc([N+](=O)[O-])cc1 (centres undefined) | -11.1%
COc1ccc(C(=O)NC2CCN(C(=S)Nc3cccc(C)c3C)CC2)cc1 | -10.7%
O=C(Nc1nnc(/N=C/c2ccco2)s1)c1ccc(F)cc1 | 11.6%
O=C(NCc1nnc(SCC(=O)N2CCCCC2)o1)c1c(F)cccc1Cl | -16.6%
C=CCn1c(CCNC(=O)c2ccc(Cl)c(Cl)c2)nnc1SCCOc1ccc(OC)cc1 | 7.7%
CC(C)(C)NC(=O)C[C@H]1C[C@H](C(=O)N2CCCCC2)[C@@]2(C)c3[nH]c4ccc(Cl)cc4c3CCN2C1=O | -25.1%
CN(C)C(=O)COC(=O)c1cccnc1Nc1ccccc1F | -12.8%
Cc1ccccc1C(=O)N1CCC(C(=O)Nc2ccc(C)c(S(=O)(=O)N3CCCCC3)c2)CC1 | -10.8%
Cc1ccccc1-n1c(C)cc(/C=C2\NC(=O)NC2=O)c1C | 7.2%
Cc1cc(O)cc(O)c1C(=O)Cc1cnn(-c2ccccc2)c1 | 2.4%
Cc1occc1C(=O)Nc1c(F)c(F)c(F)c(F)c1F | -0.1%
Cc1ccc(S(=O)(=O)N2CCN(c3ccc(C(=O)N4CCOCC4)cc3[N+](=O)[O-])CC2)cc1 | -15.3%
COc1ccc(N2C(=O)CC2(C#N)c2ccc(OCc3ccccc3)cc2)cc1 (centres undefined) | -5.7%
Cc1ccccc1OCCn1cc(C=O)c2ccccc21 | -7.1%
Cn1nc(Cc2cccc3ccccc23)c(C#N)c1N | -27.2%
COc1ccc(-c2nc(=S)c3c([nH]2)Oc2ccc(C)cc2C3)cc1O | 13.9%
COc1cc(OC)cc(N2C(=O)CC(N3CCC(C(=O)N4CCCCC4)CC3)C2=O)c1 (centres undefined) | 13.3%
CCN(CC)S(=O)(=O)c1ccc(Cl)c(NC(=O)c2ccncc2)c1 | -21.9%
O=c1c2ccccc2c(C=NCc2ccccn2)c(O)n1-c1ccccc1 | ?
CCN(C[C@H]1N[C@@](CC)(C(=O)OC)[C@H]2C(=O)N(Cc3ccccc3)C(=O)[C@@H]12)S(=O)(=O)c1ccc(-c2ccccc2)cc1 | 0.1%

3 compounds from above, ordered by their value in VDR inhibitor, descending.
Structure | VDR inhibitor
Cn1c(CC(=O)Nc2ccccc2)n[nH]c1=S | 5.1%
CCN(C[C@H]1N[C@@](CC)(C(=O)OC)[C@H]2C(=O)N(Cc3ccccc3)C(=O)[C@@H]12)S(=O)(=O)c1ccc(-c2ccccc2)cc1 | 0.1%
CN(C)C(=O)COC(=O)c1cccnc1Nc1ccccc1F | -12.8%

(listing goes on)
Structure | VDR inhibitor
O=C(CCSCc1ccccc1Cl)N1CCN(c2cccc(Cl)c2)CC1 | -0.6%&-12.4%
COc1ccc(CCNC(=O)CCCCC(=O)NCCc2ccc(OC)cc2)cc1 | -2.9%
Cn1c(SCC(=O)Nc2nc3ccccc3s2)ncc(C(=O)Nc2ccc(Cl)cc2)c1=O | -6.5%
CCOc1ccc(N2C(=O)CC(NCc3ccc(S(N)(=O)=O)cc3)C2=O)cc1 (centres undefined) | ?
O=C(NC1CCS(=O)(=O)C1)c1cccs1 (centres undefined) | 7.7%
Cn1sc(NC(=O)c2ccccc2Cl)nc1=O | ?
COc1ccc2c(c1)C1NC(=S)NC(C)(O2)C1C(=O)Nc1ccccc1C (centres undefined) | -10.5%
O=C(CSc1ccc2nnc(-c3ccc(Cl)cc3)n2n1)N1CCCC1 | -5.2%
COc1ccc(CN(Cc2cccn2C)C(=O)c2cc3cc(OC)ccc3[nH]2)cc1 | -2.8%
O=C(NCCc1ccc(F)cc1)N[C@@H](Cc1ccccc1)C(=O)O | 11.5%
COc1ccc(OC)c(Cc2nnc(CCC(=O)NC(C3CC3)C3CC3)o2)c1 | 0.2%
O=C(NCCCN1CCOCC1)c1ccc(CS(=O)(=O)c2cccc(C(F)(F)F)c2)o1 | -7.2%
Cc1ccc(S(=O)(=O)NCC2CCC(C(=O)NCc3ccc4c(c3)OCO4)CC2)cc1 (centres undefined) | -9.5%
C#CCOCCOCCOCCNc1nc(N2CCN(C(=O)[C@H]([C@@H](C)CC)n3cc(CCC(=O)O)nn3)CC2)nc(N2CCN(C(=O)[C@H](Cc3ccc(O)cc3)n3cc(CCO)nn3)CC2)n1 | -12.4%
CC(=O)OCC(=O)[C@@]1(O)CC[C@H]2[C@@H]3CCC4=CC(=O)C=C[C@]4(C)[C@@]3(Cl)[C@@H](Cl)C[C@@]21C | 12.9%
O=C(CCCCCNc1nc(=S)[nH]c2ccccc12)NCCc1c[nH]c2ccccc12 | 19.1%
O=C(CN1C(=O)c2ccccc2C1=O)Nc1cc([N+](=O)[O-])ccc1O | -13.7%
CCOc1ccccc1CNCCNCC(C)O (centres undefined) | -12.3%
Cc1nn(Cc2ccccc2)c(C)c1C(=O)OCC(=O)c1cc(C)n(C2CC2)c1C | 3.4%
COCCNC(=O)/C(C#N)=C/c1ccc(N2CCOCC2)o1 | 7.5%
O=c1[nH]cnc2c1C(c1ccc(Cl)cc1)c1c(nc[nH]c1=O)O2 | 7.7%
Cc1ccc(S(=O)(=O)CCC(=O)OCC(=O)c2c(C)[nH]c3ccccc23)cc1 | 1.7%
Nc1cc(N)c(OCC(F)(F)F)cc1OCC(F)(F)F | ?
CS(=O)(=O)Nc1cccc(C(=O)CC2(O)C(=O)Nc3ccc(Br)cc32)c1 (centres undefined) | -11.1%
C/C(=N\N)c1c(-c2ccccc2)c2cc(Br)ccc2[nH]c1=O | 1.4%
CCOC(=O)CSc1nnc2c3ccccc3n(C)c2n1 | ?
COc1ccc(C2OC34CCCCC3C(C#N)(C#N)C2(C#N)C(=N)O4)cc1 (centres undefined) | -11.7%
COc1ccc(C2C(O)C(c3c[nH]c4ccccc34)=NN2C(=O)CCl)cc1 (centres undefined) | 1.7%
CCCCNC(=O)C1CCC(CNS(=O)(=O)c2cccc3nsnc23)CC1 (centres undefined) | 12.7%
Cn1c(=O)c2c(nc(NCc3ccco3)n2Cc2ccc(Cl)cc2Cl)n(C)c1=O | 3.3%
Cc1ccccc1CN1CCC(n2nccc2NC(=O)CCOc2ccccc2)CC1 | 3.1%
CCOc1cc(Br)c(C(C)NC(=O)c2cccnc2)cc1OCC (centres undefined) | -16.6%
CCOC(=O)c1oc2nc(CC(C)C)c3c(c2c1N)CCC3 | 0.4%
O=C(O)COc1ccccc1/C=N/NC(=O)/C(=C\c1ccc2c(c1)OCO2)NC(=O)c1ccccc1 | 10.7%
COc1cc(NC(=S)Nc2cccnc2)cc(OC)c1 | -10.5%
CCOc1ccccc1C(=O)Nc1nnc(CC)s1 | -2.9%
CCOC(=O)c1cn2nc(Oc3cccc(F)c3)ccc2n1 | 1.6%
COc1cccc([C@@H]2Oc3ccc(Br)cc3C(=O)[C@H]2OC(=O)NS(=O)(=O)c2ccc(F)cc2)c1 | -2.2%
Cn1c(=O)[nH]c(=O)c2c1nc(N1CCOCC1)n2CCSc1nc2ccccc2[nH]1 | -21.1%
O=C1/C(=C\c2cccs2)SC(=S)N1C1CCS(=O)(=O)C1 (centres undefined) | 2.2%
Cc1cc(C(=O)N/N=C/c2ccccc2)c(C)o1 | -3.0%
CCOC(=O)c1cnc2c(C)c(Cl)ccc2c1Nc1ccc(C)cc1C | 7.1%
COc1ccc(NC(=O)COC(=O)CCc2ccc(S(=O)(=O)N3CCOCC3)cc2)cc1OC | -13.5%
c1ccc(-c2nc(-c3ccncc3)no2)cc1 | -4.3%
O=C(COc1cccc([N+](=O)[O-])c1)NN1C(=O)c2ccccc2C1=O | -4.7%

2 entries from above, with values ahead of the structure:
VDR inhibitor | smiles
-3.0% | Cc1cc(C(=O)N/N=C/c2ccccc2)c(C)o1
7.1% | CCOC(=O)c1cnc2c(C)c(Cl)ccc2c1Nc1ccc(C)cc1C

(cont.)
Structure | VDR inhibitor
CCOc1ccccc1NC(=O)c1c(NC(=O)c2cccc(C)c2)sc2c1CCCC2 | -24.0%
C=CCn1c(CCNC(=O)c2cccs2)nnc1SCC(=O)c1ccc(Br)cc1 | ?
CCN1C=CC(=C2C(=O)c3ccccc3C2=O)C=C1 | -1.5%
O=C(O)CCC(=O)CCC(=O)c1ccccc1 | -13.8%
NC(=O)C(NC(=O)OCc1ccccc1)c1ccccc1 (centres undefined) | 2.3%
COc1ccc2c(-c3ccccc3)cc(SCC(N)=O)nc2c1 | 28.3%
CN(C(=O)CSc1nnc(-c2ccccc2)n1C)C1CCS(=O)(=O)C1 (centres undefined) | -6.4%
CCOc1ccc(N2CC(C(=O)Nc3ccc(S(=O)(=O)Nc4ncccn4)cc3)CC2=O)cc1 (centres undefined) | 1.0%
CCCCS(=N)(=O)CCC(N)C(=O)O (centres undefined) | -7.5%
Cc1cccc(C)c1-n1c(=O)n(Cc2ccccc2)c(=O)c2[nH]cnc21 | -6.7%
O=C(NCc1ccc(N2CCCC2=O)cc1)Nc1cccc2ccccc12 | -3.1%
Cc1ccc(S(=O)(=O)N2CCN(S(=O)(=O)c3ccccc3)C2c2ccc(N(C)C)cc2)cc1 (centres undefined) | -2.3%
Cc1ccc(-c2nnn(CC(=O)N(CC3CCCO3)C(C(=O)NC(C)(C)C)c3ccc(F)cc3)n2)o1 (centres undefined) | 3.3%
Cn1nccc1NC(=O)Nc1ccc(OC(F)(F)F)cc1 | -14.5%
O=C(NCCOc1ccccc1)C1Nc2ccc(OC(F)(F)F)cc2C2C=CCC12 (centres undefined) | -11.4%
COCCn1ccc2c(OCC(=O)NCCc3ccc(OC)c(OC)c3)cccc2c1=O | 8.7%
Cc1ccc(S(=O)(=O)N2[C@@H](c3ccc(F)cc3)C(C(=O)O)=CC[C@H]2c2cccc(Cl)c2)cc1 | 2.6%
CS(=O)(=O)c1ncc(Cl)c(C(=O)N(Cc2ccc(Cl)cc2)Cc2ccco2)n1 | 25.1µM*
CCN(CC1COc2ccccc2O1)C(=O)c1ccc(Cl)c(S(=O)(=O)N2CC(C)OC(C)C2)c1 (centres undefined) | -13.5%
Nn1cnnc1N/N=C/c1ccc(Cl)c([N+](=O)[O-])c1 | ?
COc1ccc(NC(=S)Nc2cccc([N+](=O)[O-])c2)cc1 | -5.6%
CCCCn1c(N)c(N(Cc2ccccc2OC)C(=O)C(C)Oc2ccc(Cl)cc2)c(=O)[nH]c1=O (centres undefined) | -4.7%
Cc1cc(=O)nc2c3ccccc3n(CC(=O)Nc3ccccc3Br)n12 | -13.0%
COc1ccc(Cl)cc1NC(=O)c1ccoc1C | 5.9%
COc1ccc([C@H]2Cc3cccc(O)c3C(=O)O2)cc1O | -12.4%
CS(=O)(=O)N1CCN(C(=O)CSc2ccccc2)CC1 | 17.5%
Cc1nc2ccc(NS(=O)(=O)c3ccc(F)c(F)c3F)cc2s1 | 2.9%
Cc1cc(NC(=O)c2cc(-c3ccc(Cl)c(Cl)c3)on2)n(-c2ccccc2)n1 | 1.2%
O=C(CCN1C(=O)c2ccccc2C1=O)Nc1ccc(-c2nc3ccccc3s2)cc1 | -2.3%
CNC1C(O)[C@@H]2OC(O[C@@H]3C(O)C(O)C(N)C[C@H]3N)C(N)C[C@H]2O[C@H]1O[C@@H]1OC(CO)C(N)C(O)C1O (some centres undefined) | 2.1%
CC(C)(C)NC(=O)/C(=C\c1cccnc1)NC(=O)c1ccco1 | 10.2%
COc1ccc(OC)c(CCNC(=O)CN2C(=O)COc3ccc(S(=O)(=O)N4CCC(C)CC4)cc32)c1 | 17.0%
COC(=O)Cn1cccc1C(=O)c1ccccc1 | 6.0%
CCOC(=O)c1cccc(NC(=O)c2cc3ccccc3o2)c1 | -21.0%
Cc1cc(Cl)ccc1NC(=S)NCCCN1CCCC1=O | -29.9%
Cc1ccsc1CN(C(=O)c1oc2ccc(F)cc2c1C)C1CCS(=O)(=O)C1 (centres undefined) | 21.2%
O=C(/C=C/c1ccc(Cl)cc1Cl)OCC(=O)N1CCCC1 | -6.8%
COc1cc(/C=N/Nc2nc(=O)[nH]nc2C)ccc1O | 9.1%
CCOC(=O)CSc1nc(N2CCOCC2)c2c(c1C#N)CC(C)(C)N(C)C2 | 0.1%
CCOCCn1ccc2c(OCC(=O)Nc3cccc(F)c3)cccc2c1=O | 9.7%
CC1CCN(C(=O)CSc2c(C(C)C)cnc3c2c(=O)n(C)c(=O)n3C)CC1 | 1.1%
O=C(COc1ccccc1)NC1C(=O)N2C(C(=O)O)=C(Cl)CSC12 (centres undefined) | ?
O=S1(=O)C=C(N2CCCCC2)c2ccccc21 | 7.4%
CCN1CCN(C(=O)c2cc3ccc(OC)cc3[nH]2)CC1 | 15.0%
